Calb biofilm kill: mixture kills Candida albicans biofilm cells | 0.02% of 120,000 active | AID 1242 | inhibition, % at 7.6 µM | C. albicans biofilm persisters + clotrimazole, fluorescence viability; primary screen in compound mixtures of four per well;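 active = inhibition above 30.3% in the primary screen of four-compound pools, then above 30% when the compound was retested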;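 note: compounds exposed to preformed 24 h biofilms for 48 h; the number belongs to the whole pool; some results filed as inactive read as strong as hits; inactives centre near 12; 0% = biofilm with clotrimazole alone and 100% = kill control; retested singly at about 60 µM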
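Probe or stimulus – Clotrimazole 50 µg/mL co-treatment · System – C. albicans biofilms · Schedule – 24 h biofilm formation, then 48 h compound exposure, 37 °C · Evaluation – percent inhibition of biofilm viability · Technique – 2-h Alamar Blue fluorescence, 535/590 nm excitation/emission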
An asterisk follows results filed as active. An excerpt; rates above refer to the full screens.

no.	SMILES	Calb biofilm kill
1	CCOC(=O)c1c(NC(=O)CSc2ncnc3ccccc23)sc(C)c1C	12
2	COCc1ccc([C@@H]2C[C@H]3CN(Cc4ccccc4C)C(=O)[C@]34CCCN24)o1	18
3	Cc1cc(-c2c(C(=O)N3CCOCC3)c(C)nn2-c2ccccc2)no1	12
4	CCCS(=O)(=O)c1c(S(=O)(=O)CCC)c2cnccn2c1C(=O)c1ccc(CC)cc1	6
5	O=C1Cc2ccccc2Sc2c(OCCN3CCCCC3)cccc21	4
6	CC(C)C[C@H](NC(=O)c1nc[nH]c1C(=O)N[C@@H](CC(C)C)C(=O)OC(C)(C)C)C(=O)OC(C)(C)C	11
7	Cc1ccc(S(=O)(=O)N(C)c2ccc(C)c([N+](=O)[O-])c2)cc1	14
8	CC(/C=N/NC(=O)CSc1nc(C)cc(C)n1)=C\c1ccccc1	8
9	COC(=O)c1cnc(N2CCOCC2)nc1C(F)(F)F	13
10	CCN(CC)C(=O)c1c([N+](=O)[O-])c(C(C)(C)C)nn1C	22
11	COCCNC(=S)N/N=C/c1ccc(OCc2ccc(C(=O)OC)cc2)cc1	20
12	COc1cc(OC)cc(C(=O)NNC(=O)c2ccccn2)c1	-1
13	CCOc1ccccc1NC(=O)Nc1ccon1	17
14	Cc1cc(C)c(C)c(S(=O)(=O)NCC(=O)NCc2ccco2)c1C	14
15	NS(=O)(=O)c1ccc(CCNC(=O)CSc2nc3ccsc3c(=O)n2CCCCCC(=O)O)cc1	19
16	O=C(NCC1CCCN(C(=O)c2cscn2)C1)c1ccc(-c2ccccc2)cc1 (stereo not given)	14
17	CCC(=O)Nc1ccc(N/C(N)=N/c2nc(C)cc(C)n2)cc1	16
18	Cc1nnsc1C(=O)NNc1ccc(Cl)cc1	0
19	CC1CSc2n(-c3cccc(C(F)(F)F)c3)cc(-c3ccccc3)[n+]21 (stereo not given)	12
20	COc1ccc(/C=N/NC(=O)C[n+]2ccccc2)c(OC)c1OC	11
21	Cc1nn(C)c(C)c1C1C(C#N)=C(N)Oc2n[nH]c(C)c21 (stereo not given)	9
22	CCNC(=O)NC(=O)C(C)OC(=O)C1CCN(S(=O)(=O)c2ccc(C)c(C)c2)CC1 (stereo not given)	16
23	CC(=O)Nc1cc(C(=O)N2CCc3ccccc3C2)ccc1Sc1ccc(C)cc1	7
24	CCOC(=O)C/C(C)=N/NC(=O)CN(c1ccc(Br)cc1)S(=O)(=O)c1ccccc1	11
25	O=C(CCCn1c(SCc2cccc([N+](=O)[O-])c2)nc2ccccc2c1=O)NCC1CCCO1 (stereo not given)	11
26	S=C(N/N=C/c1cccs1)NC1CC2CCC1C2 (stereo not given)	38
27	CCOC(=O)C1=C(C)NC2=C(C(=O)c3ccccc32)C1c1cccc2ccccc12 (stereo not given)	16
28	Cc1noc(NS(=O)(=O)c2ccc(NC(=O)CCN3C(=O)c4ccccc4C3=O)cc2)c1C	13
29	Clc1ccc(C2=NN=C3COc4ccccc4N3C2)cc1	21
30	CCn1cc(C(=O)Nc2cc(C)ccc2C)c(=O)c2ccc(C)nc21	6

(more compounds)
no.	SMILES	Calb biofilm kill
31	COc1ccc(NC(=O)NC2CCCCC2C)cc1 (stereo not given)	17
32	O=C(CCc1nc2ccccc2c(=O)[nH]1)OCCOc1ccc(Cl)cc1	0
33	S=c1[nH]nc(COc2ccccc2)n1/N=C/c1cccs1	8
34	O=C(COC(=O)c1ccccc1)Nc1cccc(S(=O)(=O)N2CCOCC2)c1	15
35	Cc1[nH]c(=S)sc1Cc1ccc(Cl)c(Cl)c1	8
36	Cc1cc(C)nc(NS(=O)(=O)c2ccc(NC(=O)CSc3nc4ccccc4[nH]3)cc2)n1	29
37	COc1ccc(-n2c(/C=C3\C(=O)N(C)c4ccccc43)nc3ccccc3c2=O)cc1	15
38	COc1ccc(NC(=O)COC(=O)C2CCN(S(=O)(=O)c3cccs3)CC2)cc1	10
39	CC(=C/c1ccccc1)/C=N/NC(=O)c1cc(C)oc1C	17
40	Cc1cccc(N(CC(=O)NC2CCCC2)C(=O)c2nsc(Cl)c2Cl)c1C	15
41	CCOc1ccc(NC(=O)CC2SC(=O)N(c3ccccc3)C2=O)cc1 (stereo not given)	56
42	COc1ccc(C(=O)NC(=S)NNC(=O)c2ccc3ccccc3n2)cc1	-5
43	CCc1cccc(NC(=O)c2ccc(Cn3nc(C)cc3C)o2)c1	10
44	CCN(CC)c1ccc(C(=O)OCC(=O)Nc2cccc(S(=O)(=O)NC3=NCCCCC3)c2)cc1	9
45	CCOC(=O)c1nn(-c2ccccc2C)c(=O)c2c(N)scc12	15
46	CCCOc1ccc(N2C(=O)C/C(=C\c3ccccc3)C2=O)cc1	13
47	CCC(C)(C)NC(=O)C(c1cccn1C)N(C(=O)Cn1nnc2ccccc21)c1ccc(NC(C)=O)cc1 (stereo not given)	5
48	COC(=O)CNC(=O)COC(=O)c1ccc(Cl)nc1	8
49	CC1=NN(c2ccccc2)C(=O)/C1=C\c1cc(C)n(-c2cccnc2)c1C	14
50	O=C(CN1CCN(Cc2ccccc2)CC1)N/N=C/c1ccc(Br)s1	2
51	CCc1nnc(NC(=O)c2cc(S(=O)(=O)N3CCCCC3)ccc2N2CCOCC2)s1	-19
52	CCCC(=O)NC(NC(=S)Nc1ccc(S(N)(=O)=O)cc1)C(Cl)(Cl)Cl (stereo not given)	11
53	CCOC(=O)N1CCN(C(=O)c2ccc(OC)c(S(=O)(=O)N3CCOCC3)c2)CC1	2
54	Cc1c(-c2ccc(Cl)cc2)[n+](=O)c2c(n1[O-])CCCC2	18
55	CCn1cc(C(=O)NCCCN2CCCC(C)C2)c(=O)c2cc(S(=O)(=O)N3CCc4ccccc4C3)ccc21 (stereo not given)	14
56	Cc1c(Br)c([N+](=O)[O-])nn1CC(=O)Nc1cccc2nonc12	7
57	CCOC(=O)c1cnc2nc(C)nn2c1N	25
58	O=C(O)CCn1c(=O)[nH]c(=O)n(CCC(=O)O)c1=O	10
59	COc1ccc(C(=O)/C=C/c2ccc3c(c2)OCCO3)cc1	5
60	COc1ccc(OCc2nc(-c3ccc(F)c(F)c3)cs2)cc1	20

From no. 54 as far as 60, copied from above:
no.	SMILES	Calb biofilm kill
54	Cc1c(-c2ccc(Cl)cc2)[n+](=O)c2c(n1[O-])CCCC2	18
55	CCn1cc(C(=O)NCCCN2CCCC(C)C2)c(=O)c2cc(S(=O)(=O)N3CCc4ccccc4C3)ccc21 (stereo not given)	14
56	Cc1c(Br)c([N+](=O)[O-])nn1CC(=O)Nc1cccc2nonc12	7
57	CCOC(=O)c1cnc2nc(C)nn2c1N	25
58	O=C(O)CCn1c(=O)[nH]c(=O)n(CCC(=O)O)c1=O	10
59	COc1ccc(C(=O)/C=C/c2ccc3c(c2)OCCO3)cc1	5
60	COc1ccc(OCc2nc(-c3ccc(F)c(F)c3)cs2)cc1	20

Following part:
no.	SMILES	Calb biofilm kill
61	Cc1c(NC(=O)c2nn3c(c2Br)NC(c2ccccc2)CC3C(F)(F)F)c(=O)n(-c2ccccc2)n1C (stereo not given)	9
62	O=C(c1ccccc1)N1N=C(c2ccco2)CC1c1cccs1 (stereo not given)	11
63	Cc1nnc(N/N=C/c2c(O)n(-c3cccc(C(F)(F)F)c3)c(=O)c3ccccc23)[nH]c1=O	23
64	CCOC(=O)C1(CC2CCCCO2)CCN(S(=O)(=O)c2ccc(C)s2)CC1 (stereo not given)	15
65	CN(CCOc1ccc(Br)cc1)CC(=O)Nc1cccc(S(=O)(=O)NC2=NCCC2)c1	9
66	C=C1CCN(C(C(=O)OC)C(C)C)S(=O)(=O)c2ccc(F)cc21 (stereo not given)	17
67	CCSc1nnc(-c2cc(Br)ccc2NC(C)=O)c(=O)[nH]1	24
68	CCC(=O)N1CCC2(CC1)Oc1ccc(Cl)cc1C(=O)C21CC(c2ccc(Cl)cc2)=NO1 (stereo not given)	0
69	COc1ccc(C(=O)OCC(=O)Nc2ccccc2)cc1[N+](=O)[O-]	9
70	COc1cc(/C=C/C(=O)OCC(=O)NCCC2=CCCCC2)ccc1O	23
71	Cc1cc(C)nc(NC(=O)c2ccc(Cl)cc2Cl)n1	15
72	O=c1[nH]c(CSc2ncn[nH]2)nc2ccccc12	13
73	COc1ccc(C(=S)N2CCC(C(N)=O)CC2)cc1Br	0
74	O=C(Nc1nc(-c2ccc(Br)cc2)cs1)c1cccnc1	14
75	CC1CCC(C(C)C)C(OC(=O)C2=C3c4ccccc4S(=O)(=O)N3CC2)C1 (stereo not given)	13
76	Cc1nn2c(NCc3ccccn3)cc(C(C)C)nc2c1-c1ccccc1	13
77	C=CCN1CN(Cc2ccco2)CNC1=S	10
78	N/C(Cc1ccc([N+](=O)[O-])cc1)=N\OC(=O)c1ccc(Br)o1	0
79	O=C(/C=C/c1cn(-c2ccccc2)nc1-c1cccnc1)N1CCCCC1	6
80	O=C(c1ccc(C(F)(F)F)cc1)N1CCC(=O)N(C(COCc2ccc(Cl)cc2)Cc2ccccc2)CC1 (stereo not given)	15
81	N#CC1=C(N)OC2=C(C(=O)CCC2)C1c1cccs1 (stereo not given)	26
82	CC1(C)CC(=O)c2sc(NC(=O)c3cccs3)nc2C1	13
83	COc1ccc(S(=O)(=O)N(C)C)cc1NC(=O)CSc1nc(N)cc(N)n1	13
84	Cc1c(Cl)cccc1NC(=S)N1CCN(Cc2ccc3c(c2)OCO3)CC1	8
85	O=C(OCC(=O)N1CCc2ccccc21)c1cccc(S(=O)(=O)N2CCCc3ccccc32)c1	10
86	COc1ccc(CN(CC2CCC(C(=O)O)CC2)C(=S)Nc2ccccc2OC)cc1 (stereo not given)	13
87	O=C(O)C12CC3CC(C1)CC(n1ncc(NCc4ccccc4)c(Cl)c1=O)(C3)C2	8
88	O=C(Nc1ccc(Cl)cc1)/C(=C1\CCCN1)[N+](=O)[O-]	18
89	CCC(=O)/C(=C(/O)c1ccccc1)c1nc2ccccc2[nH]1	2
90	Cc1ccccc1C(=O)NNC(=O)CSc1nnc(C)n1-c1ccccc1	-2

Next results.
no.	SMILES	Calb biofilm kill
91	Cn1c(=O)c2[nH]c(N/N=C(/C#N)C(N)=O)nc2n(C)c1=O	4
92	COC(=O)C(Cc1ccccc1)N1CCS(=O)(=O)CC1 (stereo not given)	14
93	Cc1cc(N)ccc1S(C)(=O)=O	17
94	COc1ccc(NC(=O)CC2C(=O)N(c3ccc(F)cc3)C(=S)N2NC(=O)c2ccccc2)cc1 (stereo not given)	14
95	COc1ccc2[nH]c(=S)cc(C)c2c1	15
96	CCC(C)NC(=O)N1c2ccccc2Sc2ccccc21 (stereo not given)	8
97	O=C1CC2(CCCC2)CC(=O)N1c1ccccc1	12
98	CCN(CC)c1ccc(/C=C(/C#N)C(=O)NCc2ccccc2)o1	14
99	COc1ccc(-c2c(C)oc3c(CN4CCOCC4)c(O)ccc3c2=O)cc1	25
100	CCCC(c1nnnn1CC1CCCO1)N1CCN(c2ccccc2)CC1 (stereo not given)	4
101	CC(C)CNC(=O)N[C@@H](CC(C)C)C(=O)O	5
102	CCc1ccc(CN(C)C(=O)CCc2nnc(CCc3cccc(OC)c3)o2)nc1	11
103	COc1cc(C(=O)OCc2ccc([N+](=O)[O-])cc2)cc(OC)c1OC	5
104	C=CCN=C1SC(C)(C)C(=O)N1S(=O)(=O)c1ccc(C)cc1	-4
105	COc1ccc(CCNC(=O)c2ccco2)cc1OC	5
106	O=C(NC1CCS(=O)(=O)C1)c1cccc(S(=O)(=O)N2CCCC2)c1 (stereo not given)	16
107	COc1cc(-c2nnc(SCC(=O)N(C)C3CCS(=O)(=O)C3)o2)cc(OC)c1OC (stereo not given)	9
108	CCOC(=O)C1(Cc2cccc(OC)c2)CCCN(Cc2c(C)nn(C(C)C)c2C)C1 (stereo not given)	30
109	Cn1nc(C(=O)OCC(=O)Nc2sccc2C(N)=O)c2ccccc2c1=O	30
110	Cc1cc(=O)[nH]c(SCc2nnnn2-c2ccc(Cl)cc2)n1	3
111	COc1ccc(/C=C/C(=O)OCC(=O)Nc2c(C)cccc2C)cc1	-3
112	CCCSc1nc2cc(C)c(C)cc2n1CC(O)CO (stereo not given)	11
113	COc1ccc(/C=N/NC(=S)NC2CCS(=O)(=O)C2)cc1 (stereo not given)	-12
114	CCOCC(=O)Nc1cc([N+](=O)[O-])ccc1OC	19
115	CC(=O)NNC(=S)NC(=O)c1ccccc1	11
116	O=C(COC(=O)COc1cccc(Br)c1)Nc1c(Cl)cccc1Cl	8
117	O=c1c2c3c(sc2nc(N2CCNCC2)n1CCc1ccccc1)CCCCC3	22
118	Cc1cc(N2CCCCC2)ccc1[N+](=O)[O-]	12
119	COc1cc(/C=N/NC(=O)COc2c(C)cc([N+](=O)[O-])cc2C)ccc1OC(=O)c1ccccc1	-5
120	Nc1nc(-c2cccnc2)nn1C(=O)c1ccccc1Cl	12

Next compounds:
no.	SMILES	Calb biofilm kill
121	COCC(C)n1c(SCC(=O)NNC(=O)c2ccccc2)nc2ccccc2c1=O (stereo not given)	8
122	Cc1ccc(C(=O)COC(=O)CNC(=O)c2ccc(N3C(=O)c4ccccc4C3=O)cc2)cc1C	21
123	COc1ccc(CCNC(=O)CSc2nnc3ccccn23)cc1	10
124	O=C(NCCN1CCOCC1)Nc1cccc(Cl)c1	21
125	O=C(CSc1ccsc1[N+](=O)[O-])Nc1cccc(F)c1	11
126	Cc1ccc(S(=O)(=O)c2cc3ccccc3nc2N)cc1	12
127	CC(=O)c1ccc(NC(=S)NNC(=O)c2ccccc2[N+](=O)[O-])cc1	13
128	O=C(Cn1cc(C(F)(F)F)cc(Cl)c1=O)Nc1ccc(N2CCOCC2)cc1	13
129	COc1ccc(CNC(=O)COc2ccc(F)cc2)cc1	14
130	N#C/C(=C(/O)CCl)c1nc(-c2ccccc2)cs1	13
131	S=C(Nc1ccccc1)Nc1nc2ccccc2n1CCOc1ccc(Br)cc1	15

Compound activity deposited in PubChem by PCMD.
